# Cruzain inh Det = cruzain (T. cruzi) inhibition with detergent. P25779. 200,000 compounds, 0.43% hits. Potency, µM, for inactives: max response, negative = inhibition, hits mostly inhibitors. purified cruzain, Z-FR-AMC fluorescence, 0.01% Triton;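 note: plate controls were neutral wells for no effect and buffer without enzyme for full effect; nearly all actives have a fitted effect of over 40% in size; top concentration of the series not given in the record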
# Target sequence (P25779 123-467 limits assumed): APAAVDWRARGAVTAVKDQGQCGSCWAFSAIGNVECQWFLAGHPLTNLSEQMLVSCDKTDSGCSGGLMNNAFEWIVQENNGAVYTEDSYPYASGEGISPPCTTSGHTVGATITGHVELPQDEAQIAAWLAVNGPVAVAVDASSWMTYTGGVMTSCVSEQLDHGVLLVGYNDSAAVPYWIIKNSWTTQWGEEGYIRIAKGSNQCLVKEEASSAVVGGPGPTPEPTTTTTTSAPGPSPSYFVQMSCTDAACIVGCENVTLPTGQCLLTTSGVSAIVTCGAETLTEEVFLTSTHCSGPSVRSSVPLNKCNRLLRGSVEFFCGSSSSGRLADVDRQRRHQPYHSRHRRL
#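 15 min RT preincubation of 1.5 nM cruzain with compound, then 2 uM Z-FR-AMC added; kinetic AMC fluorescence, 60 s delta. Triton X-100 0.01%, pH 5.5.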
# SARS PLP yeast = SARS-CoV PLP inhibition in yeast; S. cerevisiae expressing SARS-CoV PLpro, growth rescue; control for the full effect not named in the record; Potency, µM (series often up to 32.9 µM), inactives show top-dose activity, positive = growth rescue; 330,000 compounds, 0.19% hits; active means well fitted rising curve with a large enough effect; inconclusive means small, poorly fitted or top-dose-only effect; inactive means no such curve, though single readings can be large or run the other way; note: 0% is about no effect; nearly all actives have a fitted effect of over 55% in size; growth read by luminescence after 48 h
# StopGo reporter = FMDV 2A StopGo reporter, luciferase signal; human cells with a luciferase reporter of 2A StopGo recoding; control for the full effect not named in the record; AID 1159524; 410,000 compounds, 1.2% hits; Potency, µM (top dose mostly 57.9 µM), for inactives: at the highest dose signal change, negative = less light; active = well fitted falling curve with a large enough effect; inconclusive = small, poorly fitted or top-dose-only effect; inactive = no such curve, though single readings can be large or run the other way; tested in HEK293T cells; note: % is set by controls: 0 for no effect and ±100 for the full control effect; nearly all actives have a fitted effect of over 45% in size; luciferase light after 4 h
# Cruzain inh noDet = inhibitors of Trypanosoma cruzi cruzain without detergent; P25779; purified cruzain, Z-FR-AMC fluorescence, no detergent; Potency, µM, for inactives: max response, negative = inhibition, hits mostly inhibitors; 200,000 compounds, 2.3% hits; AID 1476;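 note: plate controls were enzyme without inhibitor for no effect and buffer without enzyme for full effect; nearly all actives have a fitted effect of over 40% in size; top concentration of the series not given in the record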
#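 Detergent-free condition (0.00005% Triton X-100) in acetate buffer pH 5.5 with DTT. 1.5 nM enzyme and compound were pre-mixed 15 min, then 2 uM Z-FR-AMC substrate added; reaction progress from fluorescence change between first and third reads (60 s).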
# NS1 inh = influenza NS1 inhibition; S. cerevisiae slowed by influenza A NS1, growth recovery by OD600; Potency, µM (doses to about 46.1 µM), inactives show at the highest dose activity, positive = more growth; 270,000 compounds, 0.4% hits; active means well fitted rising curve with a large enough effect; inconclusive means small, poorly fitted or top-dose-only effect; inactive means no such curve, though single readings can be large or run the other way; note: nearly all actives have a fitted effect of over 50% in size
#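 S. cerevisiae expressing influenza A NS1, grown in glucose, washed, then diluted 1:100 into pH 6.0 -URA galactose medium with 23 nl compound. Growth recovery read as OD600; NS1-free strain serves as control.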
# RE007 growth inh = less growth of the S. pombe RE007 Vpr strain. S. pombe RE007 Vpr strain, BacTiter-Glo ATP luminescence, 24 h; control for the full effect not named in the record. Potency, µM (series often up to 92.2 µM), for the others: top-dose activity change, negative = less growth. 360,000 compounds, 0.21% hits; active = well fitted falling curve with a large enough effect; inconclusive = small, poorly fitted or top-dose-only effect; inactive = no such curve, though single readings can be large or run the other way;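 note: % is set by controls: 0 for no effect and ±100 for the full control effect; nearly all actives have a fitted effect of over 50% in size; the assay follows cell death caused by Vpr and the record does not say whether a fall means rescue or toxicity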
#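 Fission yeast RE007 carrying one integrated HIV-1 vpr copy, seeded at OD 0.01 in PMG+AL medium with 23 nL pinned compound. Grown 24 h at 30 degrees; viability read by BacTiter-Glo luminescence after 5 min.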
# MARV entry inh = inhibitors of Marburg virus binding or cell entry; Potency, µM (doses to about 37.8 µM), without a hit: at the highest dose activity change, negative = inhibition, actives largely listed as inhibitors; 300,000 compounds, 1.8% hits; Marburg virus pseudotyped entry inhibition, cell reporter; control for the full effect not named in the record; about a third of the inactives were read at about 46 µM; active = well fitted inhibition curve with a large enough effect; inconclusive = small, poorly fitted or top-dose-only effect, or effect the other way; inactive = flat fitted curve, though single readings scatter; tested in HEK293 cells; about a fifth of its hits are not listed in these tables; note: % is set by controls: 0 for no effect and ±100 for the full control effect; luciferase read-out
# Lassa entry inh = blocks Lassa virus binding to or entry into cells. Lassa virus pseudotype entry inhibition, cell reporter; control for the full effect not named in the record. Potency, µM (top dose mostly 37.9 µM), without a hit: at the highest dose activity change, negative = inhibition, usual class: inhibitors. 300,000 compounds, 1.2% hits. AID 540256; active means well fitted inhibition curve with a large enough effect; inconclusive means small, poorly fitted or top-dose-only effect, or effect the other way; inactive means flat fitted curve, though single readings scatter; tested in HEK293 cells; note: % is set by controls: 0 for no effect and ±100 for the full control effect; nearly all actives have a fitted effect of over 50% in size; luciferase read-out
# Starred values were filed as active, the others as inactive; u = inconclusive; x = no result given; & = joins results of further samples; [ ] = dose if it differs, or a comment. Unless noted, calls come from the whole dose curve; as a rule, active = well fitted curve in the direction sought with a large enough effect; inconclusive = small, poorly fitted or top-dose-only effect, or another doubt; inactive = no such curve, though single readings can be large; an effect the other way counts as inactive or inconclusive. Potency is the fitted concentration of half-maximal effect.
SMILES,Cruzain inh Det,SARS PLP yeast,StopGo reporter,Cruzain inh noDet,NS1 inh,RE007 growth inh,MARV entry inh,Lassa entry inh
Cc1cc(O)c2c(-c3ccccc3)cc(=O)oc2c1,-5.5%,-15%,u,3%,1%[9.22 µM],-6%,3%[46.1 µM],17%
CC[C@H](C)[C@@H](C(=O)N1CCNCC1)n1cc([C@@H](N)CO)nn1,x,0%,-4%,x,-1%,0%,x,x
O=C(O)CCC(=O)N1CCc2cc(S(=O)(=O)NCc3ccc(F)cc3)ccc21,0.9%,x,24%,1%,x,x,4%[46.1 µM],0%[46.1 µM]
COc1cccc(OCC(=O)NNC(=O)CCc2ccccc2)c1,x,2%,5%,x,x,13%,2%[46.1 µM],3%[46.1 µM]
COc1ccc(/C=C/C=C2\N=C(SC)SC2=O)cc1,-6.4%,-17%,-6%,-11%,22%,7%,21%,13%
CCCCc1c(O)nc(SC2CC(=O)N(c3ccc(C(=O)OCC)cc3)C2=O)[nH]c1=O (stereo not drawn),x,-5%,-7%,x,9%,33%,x,x
C/C(Nc1ccc(C)cc1)=C(/C#N)C(N)=O,-4.4%,-6%,16%,0%,-12%,8%,2%,u
Cc1ccc(C)c(N2CCN(C(=O)c3ccc(CSc4nc5ccncc5[nH]4)cc3)CC2)c1,-29%,-13%,18µM*,-13%,-5%,-3%,u,u
Cc1cc(NC(=O)CSc2nc(N)c(NC(=O)c3ccccc3F)c(=O)[nH]2)no1,x,9%,-6%,x,16%,-1%,13%,u
COc1ccc(/C=N/Nc2nnc(Cc3ccccc3)c(=O)[nH]2)cc1,x,-1%,-7%,x,0%,13%,10%,-9%
CC(=O)C1=C(O)C(=O)N(Cc2cccnc2)C1c1ccc(O)cc1 (stereo not drawn),x,1%,-20%,x,x,5%,7%[46.1 µM],2%
O=C(Nc1ccc(Br)c2cccnc12)c1ccc(Cn2cc([N+](=O)[O-])cn2)o1,1.6%,10%,-9%,7%,-10%,-13%,x,x
Nc1nn(-c2ccccc2)c(N)c1N=Nc1ccccc1F,-15%,-35%,-9%,-13%,-39%,-6%,u,u
CC1CCCCN1C(=O)CSc1nc2ccsc2c(=O)n1Cc1ccccn1 (stereo not drawn),3.9%,3%,44%[activator],-3%,u,4%,15%,u
COc1ccc([N+](=O)[O-])cc1N(CC(O)CN1CCCC1)S(=O)(=O)c1ccc(C)cc1 (stereo not drawn),x,1%,-6%,x,2%,-5%,-8%[46.1 µM],u
Cc1ccc(Cn2nnc3sc4c(c3c2=O)CCC(C)C4)cc1 (stereo not drawn),-1.2%,x,-17%,2%,x,x,18%[46.1 µM],3%[46.1 µM]
O=C(/C=C\c1ccc2c(c1)OCO2)Nc1c2c(nn1-c1ccc(Cl)cc1)CSC2,-4.8%,-21%,-26%,25µM*,12%,5%,-19%,-10%
COc1cc2ccccc2cc1C(=O)Nc1ccc(CN2CCOCC2)cc1,x,-3%,39%[activator],x,-3%,-18%,18%[46.1 µM],x
Cc1nc(SCC(=O)NC(=O)NCCC(C)C)c2c(-c3cccs3)csc2n1,-7.8%,-7%,u,-3%,-1%,12%,-27%,0%
COC(=O)c1ccc(NC(=O)CC2C(=O)N(c3ccccc3)C(=O)N2C2CCCC2)cc1 (stereo not drawn),0.4%,x,-3%,-9%,x,x,x,-2%[46.1 µM]

# Copied from the entries so far, 5 compounds:
SMILES,Cruzain inh Det,SARS PLP yeast,StopGo reporter,Cruzain inh noDet,NS1 inh,RE007 growth inh,MARV entry inh,Lassa entry inh
Cc1cc(O)c2c(-c3ccccc3)cc(=O)oc2c1,-5.5%,-15%,u,3%,1%[9.22 µM],-6%,3%[46.1 µM],17%
CC[C@H](C)[C@@H](C(=O)N1CCNCC1)n1cc([C@@H](N)CO)nn1,x,0%,-4%,x,-1%,0%,x,x
O=C(O)CCC(=O)N1CCc2cc(S(=O)(=O)NCc3ccc(F)cc3)ccc21,0.9%,x,24%,1%,x,x,4%[46.1 µM],0%[46.1 µM]
COc1cccc(OCC(=O)NNC(=O)CCc2ccccc2)c1,x,2%,5%,x,x,13%,2%[46.1 µM],3%[46.1 µM]
COc1ccc(/C=C/C=C2\N=C(SC)SC2=O)cc1,-6.4%,-17%,-6%,-11%,22%,7%,21%,13%

# Next section.
SMILES,Cruzain inh Det,SARS PLP yeast,StopGo reporter,Cruzain inh noDet,NS1 inh,RE007 growth inh,MARV entry inh,Lassa entry inh
COc1ccc(Nc2oc(/C=C/c3ccc(F)cc3)nc2C#N)cc1,-0.7%,x,16%,-8%,x,x,5%[46.1 µM],-1%[46.1 µM]
Cn1cc(CCC(=O)NC2CC2)c2ccccc21,x,-1%,-19%,x,2%,1%,10%[46.1 µM],-18%[46.1 µM]
CCOc1cccc2c1OC1(CCCCC1)N1N=C(c3cccnc3)CC21 (stereo not drawn),-5.3%,-13%,14%,-15%,-13%,-14%,-12%,20%
O=C(O)CCCN1C(=O)C2C3CCC(O3)C2C1=O (stereo not drawn),0.4%,5%,-12%,13%,3%,4%,22%,1%
O=C(c1ccncc1)N(c1ccc2oc3c(c2c1)CCCC3)S(=O)(=O)c1cccc([N+](=O)[O-])c1,-1.1%,u,-16%,u,11%,-4%,-6%,u
Cc1cc(C)cc(NC(=O)C2CCN(S(=O)(=O)c3c(C)noc3/C=C/c3ccco3)CC2)c1,-17%,x,-25%,3%,x,x,3%[46.1 µM],1%[46.1 µM]
Cc1c(O)c(CN2CCCC2)cc2c1oc(=O)c1ccccc12,-8.0%,1%,22%,u,-20%,-16%,-1%&-1%,-3%
Cc1cc(C)cc(NC(=O)C(=S)NCc2ccccc2)c1,x,1%,13%,x,3%,0%,5%[46.1 µM],-4%[46.1 µM]
Cc1ccc(C(=O)N2CCN(c3ccc(NC(=O)c4cccnc4)cc3)CC2)cc1,0.9%,-3%,-13%,3%,u,-9%,u,-10%
O=C(Nc1ccccc1-c1nnn(CC(=O)N2CCCc3ccccc32)n1)c1cccc(Cl)c1,x,x,-11%,x,x,10%,u,u
O=C(CN1CCSCC1)N/N=C/c1ccc(F)c(F)c1,2.3%,10%,16%,-3%,9%,-22%,5%,9%
O=C1c2ccccc2-c2cccc3cccc1c23,-2.7%,x,36%&35%[activator],-4%,x,-18%[18.4 µM],x,x
O=C(O)C1CCN(C(=O)CCc2ccccc2)CC1,x,1%,-10%,x,1%,3%,-28%,u
CCNc1nc(NCC)nc(N/N=C/c2ccc(Br)cc2)n1,x,1%,u,x,x,0%,u,x
O=C(c1ccc(S(=O)(=O)N2CCOCC2)cc1)N1CCN=C1SCc1cccnc1,6.1%,2%,-11%,7%,2%,7%,19%[46.1 µM],-12%
COc1ccccc1CNC(=O)CCS(=O)(=O)c1cccs1,2.9%,4%,52%[activator],5%,5%,-6%,2%,4%
O=C(OCC(=O)c1c[nH]c2ccccc12)c1cccc(S(=O)(=O)N2CCCCCC2)c1,-3.4%,-7%,-19%,u,17%,18%,u,3%
Cc1cc(C)c2c(=O)n(CC(=O)Nc3ccc(Br)c(C)c3)sc2n1,x,-5%,-23%,x,-88%,u,x,x
O=C(NC(=S)Nc1ccc(NC(=O)c2cccs2)cc1)c1ccc([N+](=O)[O-])cc1,-1.6%,-19%,-1%,13µM*,16%,-14%,-1%,1%
COc1ccc(OC)c(/C=C2\N=C(c3ccccc3)OC2=O)c1,x,8%,-2%,x,1%,5%,24%[46.1 µM],7%[46.1 µM]
COc1ccc(NC(=O)N(CCC(C)C)C(C)c2cccs2)c(OC)c1 (stereo not drawn),-0.8%,x,1%,-4%,x,x,x,2%[46.1 µM]
COC(=O)c1c(NC(=O)CN2CCC3(O)CCCCC3C2c2ccc(F)cc2)sc(C)c1C (stereo not drawn),-4.5%,-17%,-22%,u,u,x,u,-8%
CC(C)(C)C(=O)Nc1ccc(N=Nc2ccccc2)cc1,x,1%,18µM*,x,2%,-15%,u,x
O=C(NO)c1ccccc1O,3.3%,-8%,-23%,2%,6%,30%,-3%&-3%&-3%,10%
CCn1ccnc1CN(C)Cc1cn[nH]c1-c1ccc(OC)c(F)c1,x,2%,-15%,x,-4%,4%,8%[46.1 µM],14%[46.1 µM]
CCn1c(SCC(=O)OCc2ccccc2)nc2c1c(=O)n(C)c(=O)n2C,1.3%,7%,12%,3%,-8%,11%,6%,1%
CCN(CC(=O)N1CCOCC1)S(=O)(=O)c1ccc(F)cc1,x,3%,4%,x,19%,0%,1%[46.1 µM],-8%
Cc1cc(N2CCC(C)CC2)nc(SCC(=O)c2ccccc2)n1,-8.1%,-21%,-14%,2%,-34%,-4%,u,-19%
Cc1ccsc1C(=O)C1CCCN(Cc2cccc(-n3cccn3)c2)C1 (stereo not drawn),x,0%,u,x,3%,-11%,u,-28%
O/C(=C\c1nc2ccccc2[nH]1)c1cccs1,x,-16%,0%,x,-68%,-19%,-19%[46.1 µM],u
CC(C)(C)OC(=O)N1CCC(c2c(C(=O)Nc3ccc4c(c3)OCCO4)cnn2-c2ccccc2)CC1,-11%,x,-29%,14%,x,x,x,6%[46.1 µM]
Cc1nc(-c2cccs2)sc1C(=O)O,x,-2%,14%,x,-46%,-17%,x,x
O=C(O)CCN1C(=O)S/C(=C\c2cccnc2)C1=O,x,-1%,-7%,x,5%,0%,u,-1%[46.1 µM]
O=C(CNc1cc(S(=O)(=O)N2CCOCC2)ccc1NCC1CCCO1)Nc1cccc(F)c1 (stereo not drawn),x,1%,26%,x,-18%,-3%,u,2%
O=C(CC(=O)NN=C1CCCC1)NCCc1ccccc1,0.3%,3%,2%,5%,-10%,-2%,-1%,0%
COc1ccc(C2=NC(c3ccccc3)=Nc3ccc(C)cc3N2)cc1,-2.8%,x,-3%,u,x,x,-27%[46.1 µM],0%[46.1 µM]
Cc1ccc(OCC(=O)N2CCN(c3nnc(-c4ccc(C)cc4)c4ccccc34)CC2)cc1,-6.0%,0%,u,-20%,-115%,2%,4.1µM*,u

# Assay outcomes: PubChem, National Center for Advancing Translational Sciences (NCATS)
